# PINK1 expr mod – changes PINK1 expression; PINK1 immunofluorescence, high-content cytometry, 24 h; Potency, µM (doses to about 76.6 µM), inactives show top-dose activation (PINK1 increase), actives largely listed as activators; actives 0.2% (n = 410,000); active = well fitted activation curve with a large enough effect; inconclusive = small, poorly fitted or top-dose-only effect; inactive = flat fitted curve, though single readings scatter; cell line not stated here;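 note: potency is the fitted concentration of half-maximal effect; % of control where 0% means no effect; nearly all actives have a fitted effect of over 65% in size; a mitochondrial uncoupler was the plate control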
#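 Compound titrations (5 concentrations, 24 h) on a stable cell line; DMSO and CCCP controls. Endpoint: fixed-cell PINK1 immunofluorescence with mitochondrial, cell and nuclear markers, scanned by microplate cytometer.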
# gsp antagonist – antagonists of gsp mutant (McCune-Albright syndrome); Potency, µM (top dose mostly 76.9 µM), for the others: top-dose activity change, negative = inhibition, hits mostly inhibitors; gsp-mutant cells, cAMP HTRF, 30 min; control for the full effect not named in the record; AID 624288; actives 0.4% (n = 340,000); active = falling curve of any shape with a large fitted effect; inconclusive = falling curve, mostly with a smaller effect; inactive = flat or rising curve; cell line not stated here;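 note: intracellular cAMP measured with PDE inhibitor Ro 20-1724 present during compound exposure; potency is the fitted concentration of half-maximal effect; % is set by controls: 0 for no effect and ±100 for the full control effect; nearly all actives have a fitted effect of over 65% in size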
#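 HTRF cAMP read-out (cAMP-d2 plus anti-cAMP antibody-K in lysis buffer, 30 min RT). Before lysis, cells are exposed to compounds with […] for 30 min at 37C in DPBS containing Ca/Mg, BSA and Tween 20.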
# D2 agonist – agonists of human D2 dopamine receptor (beta-arrestin) | actives 0.084% (n = 360,000) | activation, % (concentration not given with the values) | P14416 | DiscoveRx PathHunter D2 beta-arrestin, luminescence, 90 min; 100% = 57 uM dopamine signal; in the data active = activation above about 40%; inconclusive = about 15% to 40%; inactive = below about 15%; note: compound concentration not given in the record; the text of the record calls up to 30% inactive
# Target sequence (P14416 whole entry, looked up): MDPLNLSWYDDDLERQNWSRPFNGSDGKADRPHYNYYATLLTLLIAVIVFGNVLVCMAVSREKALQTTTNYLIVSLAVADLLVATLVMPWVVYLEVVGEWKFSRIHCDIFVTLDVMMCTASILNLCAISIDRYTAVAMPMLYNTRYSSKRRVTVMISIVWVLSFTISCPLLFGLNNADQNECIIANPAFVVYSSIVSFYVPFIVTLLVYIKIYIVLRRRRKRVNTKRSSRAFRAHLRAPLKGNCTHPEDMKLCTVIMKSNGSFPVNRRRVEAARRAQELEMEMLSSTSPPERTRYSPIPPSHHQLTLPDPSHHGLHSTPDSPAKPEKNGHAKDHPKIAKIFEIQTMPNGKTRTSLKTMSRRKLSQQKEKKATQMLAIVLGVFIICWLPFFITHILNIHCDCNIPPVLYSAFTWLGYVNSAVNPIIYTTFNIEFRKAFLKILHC
#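 DiscoveRx PathHunter D2 beta-arrestin cells (2,100/well) attached overnight, then compound-stimulated 90 min at 37 C in HBSS/10 mM HEPES/0.1% Tween-20 buffer; beta-galactosidase complementation read by luminescence after 1 h at ambient temperature. Dopamine 57 uM final (EC100) as control.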
# Menin-MLL FL inh – displaces fluorescein MLL peptide from human menin | FP activity change, % at 61.4 µM | Fluorescence polarization, fluorescein-MLL peptide displacement from menin | 290,000 tested, under 10 active | AID 1766; inconclusive = falling polarisation curve, or a change in total fluorescence; inactive = total fluorescence flat and polarisation flat or rising; no compound was filed as active; the % refers to the polarisation; negative = inhibition;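 note: % of control where 0% means no effect; inhibitors lower the polarisation; unlabelled MLL peptide was the positive control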
# Sfp inh – blocks B. subtilis Sfp PPTase activity. AID 1490. actives 3.5% (n = 310,000). Biochemical Sfp PPTase activity, qHTS. Q9F4F7. Potency, µM, inactives show max response, negative = inhibition, hits mostly inhibitors; active = well fitted inhibition curve with a large enough effect; inconclusive = small, poorly fitted or top-dose-only effect, or another doubt; inactive = no such curve, though single readings can be large or run the other way;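 note: the enzyme is Sfp with the accession as filed and its product quenches rhodamine fluorescence; potency is the fitted concentration of half-maximal effect; 0% = enzyme reaction without inhibitor and -100% = no enzyme wells; top concentration of the series not given in the record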
#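 Step 1, compound plus 15 nM Sfp-PPTase, 15 min, room temperature. Step 2, add rhodamine-CoA (5 uM) and BHQ-2-YbbR (12.5 uM). Step 3, read 525/598 nm fluorescence at 0 and 30 min.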
# gsp agonist – activates gsp, the McCune-Albright syndrome mutation; gsp mutant cells, cAMP HTRF, 30 min; control for the full effect not named in the record; Potency, µM (titrated, usually from 76.9 µM), inactives show at the highest dose activation (cAMP increase), most hits filed as activators; actives 0.13% (n = 340,000); AID 624287; active = well fitted activation curve with a large enough effect; inconclusive = small, poorly fitted or top-dose-only effect, or another doubt; inactive = no such curve, though single readings can be large or run the other way; cell line not stated here;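 note: phosphodiesterase inhibitor Ro 20-1724 added with compounds to block cAMP breakdown; potency is the fitted concentration of half-maximal effect; nearly all actives have a fitted effect of over 60% in size; about a fifth of the inactives were tested at one dose only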
#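 Cells stably selected in G418 were plated at 2000/well, grown 16-24 hr, then given compounds in DMSO with the PDE inhibitor […] (300 uM solution added) for 30 min at 37C; cAMP was read by HTRF.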
# ClpP mod – qHTS Assay for Activators of ClpP. purified B. subtilis ClpP, FRET peptide cleavage, 20 min. ATP-dependent Clp protease proteolytic subunit (Bacillus subtilis (strain 168)), P80244. actives 1.9% (n = 340,000). Potency, µM (titrated, usually from 57.5 µM), inactives show at the highest dose activity change, negative = active; active = well fitted falling curve with a large enough effect; inconclusive = small, poorly fitted or top-dose-only effect; inactive = no such curve, though single readings can be large or run the other way; note: potency is the fitted concentration of half-maximal effect; the source files actives as falling curves though it sought activators and does not explain the sign; nearly all actives have a fitted effect of over 65% in size; many hits overshoot -100%
# Target sequence (P80244 whole entry, looked up): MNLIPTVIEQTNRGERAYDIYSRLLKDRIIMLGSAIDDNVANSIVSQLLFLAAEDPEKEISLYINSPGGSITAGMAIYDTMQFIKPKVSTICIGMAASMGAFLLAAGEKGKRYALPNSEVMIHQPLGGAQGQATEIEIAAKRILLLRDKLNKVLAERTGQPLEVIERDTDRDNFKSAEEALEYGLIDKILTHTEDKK
#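 FRET quenching reversal measured ClpP activation: 10 microg/mL B. subtilis ClpP at pH 8 with the FRET-FV decapeptide, read at 430 nm after 320 nm excitation. The 20-min minus 0-min signal was scaled between DMSO/no-enzyme wells and ADEP (5.8 microM final).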
# * = called active by the depositor; ? = inconclusive; nt = no result given; & = joins results of further samples; [ ] = remark or other dose.
SMILES	ClpP mod	PINK1 expr mod	gsp antagonist	D2 agonist	Menin-MLL FL inh	gsp agonist	Sfp inh
Cc1nc2c(ccc3nc(NC(=O)Cc4ccccc4)sc32)s1	-3.9%	0.9%	7%	0.0	5.6	21%	13%
CN(N=Nc1nc[nH]c1C(=O)NN)C1CCCCC1	2.4%	0.3%	?	-5.3	nt	1%	nt
Cc1cc(C(=O)C(=O)O)c(C)n1-c1ccc(Cl)c(Cl)c1	nt	-1.4%	-8%	-1.1	-0.4	-27%[15.4 µM]	24%
Cn1c(N2CCN(C(=O)NCc3ccccc3)CC2)nc2ccccc21	-1.7%	1.0%	1%	-1.3	2.3	22%	14%
CCOC(=O)C1(S(=O)(=O)c2ccc(Cl)cc2)CCN(Cc2ccc(Cl)cc2)CC1	1.3%	61%[38.3 µM]	-2%	-1.4	4.0	7%	2%
Cc1cc(C(F)(F)F)nn1CC(=O)N1CCOCC1	1.6%	-1.3%[38.3 µM]	7%	-1.4	2.5	7%	-2%
C/C(=N\NC(=O)c1cccc(N/N=C(\C)c2cc(O)ccc2O)c1)c1cc(O)ccc1O	nt	1.3%	-17%	10	?	4%[15.4 µM]	8%
COc1cc(/C=C/C(=O)OCC(=O)N2CCOCC2)ccc1OCC#N	nt	4.3%	-18%	-0.9	0.4	11%[15.4 µM]	18%
COc1ccc(N2CCN(CC(=O)Nc3ccccc3C(=O)NCc3ccccc3)CC2)cc1	-5.7%	0.3%	?	5.7	nt	?	nt
O=C(NCCc1ccc(Cl)cc1)C1CCC(CNc2nc(=S)[nH]c3ccccc23)CC1 (stereo unspecified)	?	1.8%	1%	1.0	0.2	-2%[15.4 µM]	-12%
CN(C)C1=C(Cl)C(=O)N(c2ccc(Cl)c(Cl)c2)C1=O	2.9%	2.4%	-3%	-2.1	-19	-12%	3%
Cc1ccc(-c2noc(COc3ccc4c(c3)OCO4)n2)cc1	1.9%	15%	10%	-0.5	1.0	?	-1%
COc1cccc(-c2ccc(NC(=O)C3CCCN(Cc4cnn(C)c4)C3)cc2)c1 (stereo unspecified)	-1.2%	3.0%	28%	-2.6	-0.8	-32%[inhibitor]	0%
CCc1nc2ccc(C(=O)NC3CCC(C)CC3)cc2nc1CC (stereo unspecified)	-1.0%	0.4%	-3%	5.7	4.7	-12%	4%
CC1=C(C)CC(C(=O)Nc2nc(-c3ccc(F)cc3)c(C)s2)C(C(=O)O)C1 (stereo unspecified)	-1.7%	1.9%	-2%	-0.1	3.9	-4%	13%
N#Cc1c(-c2ccco2)ccn(Cc2cccc(F)c2)c1=O	-2.3%	-0.8%	-6%	-8.4	?	2%[15.4 µM]	-13%
CCn1c2ccccc2c2cc(NC(=O)c3ccc([N+](=O)[O-])cc3)ccc21	121%	11%	1%	5.5	-0.1	-43%[inhibitor]	-20%
O=C(CSc1ccc(-c2cccs2)nn1)Nc1ccccc1	-15%	0.5%&-0.1%	-63%	-0.3	4.2	6%[15.4 µM]	12%
O=Cc1ccc(N2CCCCC2)cc1	nt	-0.2%	nt	-2.6	1.4	10%[15.4 µM]	22%
COCCSc1ccccc1C(=O)N1CCCC(C)C1 (stereo unspecified)	-0.2%	1.9%	7%	-3.0	1.0	-124%[inhibitor]	0%
Cc1nnc(SCc2cc(=O)[nH]c(N3CCCCC3)n2)s1	0.8%	-0.6%	5%	-1.7	nt	-13%	nt
N#Cc1ccccc1CSc1nc2ncc(Br)cc2[nH]1	1.0%	2.8%&-2.4%	16%	-0.2	3.3	?	7%
Cc1cccc(N/C(N)=N/c2nc3c(c(=O)[nH]2)CCCC3)c1	-0.6%	-1.2%[38.3 µM]	5%	-0.5	-4.1	-3%	9%
COc1ccccc1NS(=O)(=O)c1cccc(NS(=O)(=O)c2cc(C(=O)O)ccc2Cl)c1	1.4%	0.2%	nt	-0.5	nt	24%	nt
CNc1cc(C)nc(N2CCOCC2)n1	-3.5%	0.2%	7%	1.1	12	-4%	6%
CCC(C)c1ccccc1NC(=O)C(C)N(C)Cc1cccc(OC)c1 (stereo unspecified)	nt	20%	-26%	-2.2	0.0	15%	50µM*
CCOC(=O)C1(CCOc2ccccc2)CCN(Cc2ccc(NC(C)=O)cc2)CC1	nt	7.5%	2%	-4.5	-0.9	-1%[15.4 µM]	3%
COc1ccc(C2C(C#N)=C(N)OC3=C2C(=O)CC(C)(C)C3)c(OC)c1OC (stereo unspecified)	0.1%	1.1%	3%	-1.5	-2.7	-3%	15%
COc1ccc(Cl)cc1Nc1nc(N)c2ccccc2n1	nt	1.2%	-12%	4.3	3.3	-33%[inhibitor]	-17%
CCCCCCCN1CCN=C1N(C)C	0.3%	-0.8%	11%	1.5	nt	nt	nt
COc1ccc(C(c2nnnn2CCc2ccccc2)N2CCN(C3CCCC3)CC2)cc1 (stereo unspecified)	-1.9%	0.2%	12%	-4.2	1.5	-17%	0%
CC1=NNC(=O)C1CC(=O)N/N=C(/C)c1cccc([N+](=O)[O-])c1 (stereo unspecified)	-0.4%	0.2%	11%	-4.0	-0.3	18%[15.4 µM]	6%
Cc1ccc([C@@H]2CC=C(C(=O)O)CN2S(=O)(=O)c2ccc(C)cc2)cc1	-0.2%	1.0%	-17%	-1.0	nt	-1%	nt
CCc1ccc(NC(=O)C(=O)NCC2CCCO2)cc1 (stereo unspecified)	-2.7%	-1.7%	9%	5.3	-3.9	8%	-4%
FC(F)(F)c1ccc(N2CCOCC2)c(Nc2nc3ccccc3n3cnnc23)c1	-22%	-3.5%[38.3 µM]	-19%	-2.2	14	4%	-19%
Cc1nnc(N2C(=O)C(=O)/C(=C(/O)c3ccc4c(c3)OCCO4)C2c2cccc([N+](=O)[O-])c2)s1 (stereo unspecified)	3.3%	0.7%	nt	-2.0	nt	12%	nt
O=C(CN1C(=O)COc2ccc(S(=O)(=O)N3CCCCC3)cc21)NCc1ccc(Cl)cc1	2.1%&-4.4%	1.5%&-0.7%	?	-6.1	-1.5	28%	2%
CC1(C)CC(=O)C=C(NCCc2ccc(S(N)(=O)=O)cc2)C1	0.7%	1.7%	-3%	-0.1	1.0	-1%	-8%
COc1ccc(C(C)=O)c2c1OCCO2	-5.3%	-0.8%	4%	0.6	-1.5	0%	4%
Cc1cc(N2CCCC2)ccc1NC(=O)COc1ccc(Cl)cc1	-2.1%	23%	?	-1.3	nt	2%	nt
CC1(C)SC2c3ccccc3C(=O)N2[C@@H]1C(=O)NC1CC1 (stereo partly specified)	2.3%	6.0%	23%	-3.6	nt	-3%	2%
O=C(COc1ccccc1)NNC(=S)NC(=O)c1ccc(Cl)cc1Cl	-1.1%	-0.3%	-15%	0.3	-0.7	-22%	50µM*
Cc1cc(C)cc(NC(=O)N2CCC(NC(=O)c3ccco3)CC2)c1	nt	-0.2%	7%	-0.7	-5.6	18%	16%
COc1cccc(C(=O)Nc2ccc(C)cc2)c1	0.0%	17%[38.3 µM]	1%	-1.1	4.5	-53%[inhibitor]	4%
O=c1[nH][nH]c(C(F)(F)F)c1C=NCc1cccs1	0.3%	2.4%	6%	-2.6	-3.0	?	13%
O=c1c2cc(NC(=S)NCCCN3CCC(Cc4ccccc4)CC3)ccc2nc2n1CCCCC2	3.3%	-0.6%	7%	-3.4	-2.4	6%	6%
CC(C)C[C@H]1COCCS(=O)(=O)N1Cc1cccc(C(F)(F)F)c1	0.8%	4.6%	-5%	-5.8	nt	20%	nt
COc1ccc2c(c1)CCC1C2=NN(/C(C)=C/C(C)=O)C1c1cccc(F)c1 (stereo unspecified)	nt	-0.3%	-8%	11	5.2	-10%[15.4 µM]	-11%
Cc1cc(C)c(S(=O)(=O)N(C)CC(=O)NCCN2CCOCC2)c(C)c1	nt	-1.1%	14%	0.7	-2.7	14%[15.4 µM]	6%
COc1ccccc1NC(=O)Nc1nnc([C@@H]2C[C@H](O)[C@@H](CO)O2)s1	-0.5%	1.3%	nt	-2.5	nt	nt	nt
C[C@H](CO)N1C[C@H](C)[C@@H](CN(C)Cc2ccncc2)Oc2ccc(NC(=O)CCCCCC(=O)Nc3ccccc3N)cc2C1=O	1.8%	-0.4%	-4%	-2.6	nt	-8%	nt
S=c1[nH]nc(CCc2nc3ccccc3[nH]2)n1-c1cccc(Cl)c1	nt	-0.8%	nt	1.5	0.4	11%[15.4 µM]	50µM*
CC(C)(C)c1nc2c(s1)CCc1onc(-c3ccc(Cl)cc3)c1-2	-2.6%	2.5%	-6%	-2.1	nt	-3%	nt
N#CCCN(Cc1ccccc1)C(=S)Nc1ccc(F)cc1	nt	-0.2%	9%	-5.6	5.6	1%	11%
COc1cc(/C=C/C(=O)OCC(=O)Nc2cc(C(F)(F)F)ccc2N2CCOCC2)ccc1O	-20%	?	2%	0.7	8.0	3%	11%
COc1ccc([C@H]2C[C@H](O)[C@@H](n3cc(-c4ccc(F)cc4)nn3)CN2C(=O)C2CCCCC2)cc1	0.1%	2.2%	nt	0.3	nt	?	nt
CCN(CC)S(=O)(=O)c1cccc(C(=O)Nc2nc3cc4c(cc3s2)OCCO4)c1	-21%	6.3%[38.3 µM]	-15%	-2.9	-0.5	-38%	5%
CCOC(=O)c1cnc2ccc(Cl)cc2c1Nc1ccc(S(=O)(=O)Nc2ncccn2)cc1	1.6%	-1.1%	15%	-1.4	3.7	?	11%
CCCCC1=CC2=CC(=O)C(C)(OC(=O)CC)C(=O)C2=CN1CCCCO (stereo unspecified)	-2.8%	0.3%	8%	5.8	-2.1[11.7 µM]	nt	22%&-2%

# Compound activity from PubChem BioAssay.

# Hits appear at their usual frequency; overall some 5.1% were active at least once.
